Assay outcomes: PubChem, National Center for Advancing Translational Sciences (NCATS)
TRPML1 ag: human mucolipin-1 channel agonism | TRPML1-expressing cells, Ca2+ dye fluorescence, FDSS; host cell line not named in the record; reference of the full effect not given here | hit rate 0.12% among 410,000 | AID 624414 | activation, % (concentration not given with the values) | Q9GZU1; in the data active = activation above about 50%; inconclusive = about 30% to 50%; inactive = below about 30%; note: 0% is about no effect; the text of the record puts the active cut at 80%
Target sequence (Q9GZU1 whole entry, looked up): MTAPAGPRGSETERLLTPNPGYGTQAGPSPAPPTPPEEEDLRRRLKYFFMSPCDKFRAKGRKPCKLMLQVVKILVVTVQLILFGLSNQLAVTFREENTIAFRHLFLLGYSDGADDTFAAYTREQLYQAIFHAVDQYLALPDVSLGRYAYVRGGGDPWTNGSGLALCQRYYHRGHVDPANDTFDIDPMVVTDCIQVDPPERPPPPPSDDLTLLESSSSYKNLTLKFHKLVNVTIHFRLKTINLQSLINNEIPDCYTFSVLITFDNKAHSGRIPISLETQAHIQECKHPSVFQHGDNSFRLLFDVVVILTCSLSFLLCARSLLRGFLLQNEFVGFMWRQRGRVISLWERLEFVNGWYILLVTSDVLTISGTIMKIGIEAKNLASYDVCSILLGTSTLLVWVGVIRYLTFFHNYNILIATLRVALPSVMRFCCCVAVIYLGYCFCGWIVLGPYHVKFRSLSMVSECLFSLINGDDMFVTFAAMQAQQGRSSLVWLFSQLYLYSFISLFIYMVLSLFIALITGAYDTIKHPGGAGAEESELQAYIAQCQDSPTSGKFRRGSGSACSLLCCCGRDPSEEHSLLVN
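Tetracycline-induced TRPML1-DL cells are seeded and incubated overnight before loading with a no-wash Ca2+ dye and quencher. Agonist activity is taken from the 110 s fluorescence read following compound pin-transfer on an FDSS, before EC80 54-4 challenge.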
TRPV1 potentiator: enhances activation of the human vanilloid receptor TRPV1 | Q8NER1 | potentiation, % at 8.33 µM | hit rate 0.02% among 320,000 | TRPV1-expressing cells, Fluo-8 calcium influx, capsaicin EC20 potentiation; host cell line not named in the record; control for the full effect not named in the record; active means potentiation above 80%; inconclusive means 30% to 80%; inactive means below 30%; note: 0% is about no effect
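Fluo-8 calcium influx in TRPV1-expressing cells, kinetic read (ex 480/em 520 nm). Compound added and read 3 min for agonist activity, followed by capsaicin at EC20 final and 2 min further read for enhancement.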
CtBP-E1A inh: CtBP/E1A binding inhibition; AlphaScreen GST-E1A/His-CtBP binding, 1536-well; active compounds read low; control for the full effect not named in the record; activity change, % (test concentration not listed); hit rate 0.49% among 340,000; in the data active means activity change below about -65%; inconclusive means about -30% to -65%; inactive means above about -30%; note: % is set by controls: 0 for no effect and ±100 for the full control effect
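AlphaScreen with 125 nM GST-E1A and 125 nM His-CtBP (5X stocks) in Tris pH 8.0, 300 mM NaCl, BSA, Tween 20, TCEP. Compounds preincubated 2 h at 37 deg C, then glutathione donor/nickel acceptor beads added for 1 h at 37 deg C in dark.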
TRPML1 inh: blocks the human TRPML1 channel. hit rate 0.02% among 390,000. TRPML1-inducible cells, Ca2+ dye fluorescence, FDSS; active compounds read low; inhibition of EC80 agonist-evoked calcium signal. activity change, negative = inhibition, % (concentration not given with the values). Q9GZU1; in the data active means activity change below about -50%; inconclusive means about -30% to -50%; inactive means above about -30%;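 note: stimulus is agonist 54-4 at its EC80 concentration; % is set by controls: 0 for no effect and ±100 for the full control effect; the text of the record puts the active cut at -80%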
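Tet-induced TRPML1-DL cells loaded with Ca8 no-wash calcium dye were read kinetically on FDSS. Compound addition was followed by EC80 agonist 54-4 (4 uM final); inhibition was read over 110 s.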
Six1-Eya2 inh: blocks human Six1 binding to Eya2 | Q15475+O00167 | AlphaScreen GST-Six1/His-Eya2 binding, biochemical; active compounds read low; control for the full effect not named in the record | activity change, % (concentration not given with the values) | hit rate 0.56% among 360,000; in the data active = activity change below about -65%; inconclusive = about -30% to -65%; inactive = above about -30%; note: % is set by controls: 0 for no effect and ±100 for the full control effect
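AlphaScreen with GST-Six1 and His-Eya2 (5X mix: 250 nM and 500 nM), glutathione donor and nickel acceptor beads; buffer 50 mM Tris pH 8.0, 300 mM NaCl, 1 mM TCEP; 1 h at 37 C in the dark.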
D2 potentiator: human D2 receptor positive allosteric modulation; P14416; DiscoveRx D2 beta-arrestin cells, luminescence, 90 min; 100% = 57 uM dopamine signal; potentiation, % (test concentration not listed); hit rate 0.23% among 360,000; active = potentiation of 50% or more; inconclusive = 30% to 50%; inactive = 30% or less;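 note: compound concentration not given in the record; tested on top of an EC20 dose of dopamine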
Target sequence (P14416 whole entry, looked up): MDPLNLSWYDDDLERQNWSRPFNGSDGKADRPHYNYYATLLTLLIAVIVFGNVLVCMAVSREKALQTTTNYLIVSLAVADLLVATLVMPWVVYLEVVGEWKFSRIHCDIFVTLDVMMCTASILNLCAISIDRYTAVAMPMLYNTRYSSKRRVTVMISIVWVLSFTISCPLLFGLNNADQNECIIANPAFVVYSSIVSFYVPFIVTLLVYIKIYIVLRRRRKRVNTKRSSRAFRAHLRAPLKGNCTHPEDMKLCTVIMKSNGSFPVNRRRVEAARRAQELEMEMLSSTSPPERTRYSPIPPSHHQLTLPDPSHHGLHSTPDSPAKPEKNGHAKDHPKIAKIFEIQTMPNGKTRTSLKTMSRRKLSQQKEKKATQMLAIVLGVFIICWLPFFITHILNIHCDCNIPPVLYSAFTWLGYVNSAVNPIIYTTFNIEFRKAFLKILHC
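D2 cells co-treated with compound plus 50 nM dopamine (EC20) for 90 min at 37 deg C to detect potentiation. Beta-arrestin recruitment was read as enzyme-fragment luminescence after 1 h at ambient temperature. Full response was set by 57 uM dopamine.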
Starred values were filed as active, the others as inactive; ? = inconclusive; . = no result given. An unsorted share of the library; 0.95% or so of the library scored in one or more.

Screens in order – TRPML1 ag	TRPV1 potentiator	CtBP-E1A inh	TRPML1 inh	Six1-Eya2 inh	D2 potentiator
Cc1ccc(-c2noc(CCC(=O)Nc3ccccc3C)n2)cc1
  1.5	-10.6	4.0	4.2	-0.9	8.7
COc1cc2[nH]c(=S)nc(Nc3ccc(NC(C)=O)cc3)c2cc1OC
  1.8	4.0	-89.6*	-11.9	-87.9*	-6.0
CCCCCCCC(=O)Nc1cc(C(=O)NCc2ccc(C)cc2)ccc1N1CCC2(CC1)CC(c1ccccc1)=NO2
  0.0	1.5	6.6	-11.1	4.3	-1.9
CC1CCCC(NC(=O)c2cc(-c3ccncc3)nc3ccccc23)C1C (stereo not drawn)
  2.5	-2.9	0.0	52.9	4.0	?
CCOC(=O)c1ccc(NC(=O)CCc2nnc3ccc(N4CCCC4)nn23)cc1
  -0.7	-7.6	2.5	9.3	2.8	-6.0
COc1cccc(Oc2nccc(N(C)C)c2C#N)c1
  0.0	-11.8	0.2	15.2	-0.4	-2.8
COc1ccc(NC(=O)c2cc(CC(C)C)on2)cc1OC
  0.0	-32.4	0.8	1.6	-3.0	-9.8
CCc1nc2ccccc2c(=O)n1NC(=O)c1c(O)c2cccc3c2n(c1=O)CCC3
  0.8	-20.5	-1.2	7.8	1.5	-6.5
CCOCCCNC(=O)c1c[nH]c2ccc(C)cc2c1=O
  -0.5	23.0	-0.8	11.6	-1.9	4.2
O=C(Nc1ccc2c(c1)OCCO2)c1cncc(Br)c1
  3.0	-1.7	-1.2	7.7	1.2	-7.0

Further records follow.
Screens in order – TRPML1 ag	TRPV1 potentiator	CtBP-E1A inh	TRPML1 inh	Six1-Eya2 inh	D2 potentiator
C/C(=N\NC(=O)c1nn(C)cc1Br)c1ccc(NC(=O)c2ccncc2)cc1
  -0.4	7.3	-5.8	-13.2	-9.2	0.5
Cc1ccc2c(c1C)NC(C)CC2C (stereo not drawn)
  -1.0	3.1	4.2	18.0	-2.4	-5.0
COc1ccc(/C=C(/NC(=O)c2ccco2)C(=O)Nc2cccc(C(=O)O)c2)cc1
  0.3	-0.5	4.1	-7.3	4.9	3.6
CCCCN(C)C(=O)c1nc2ccccn2c1CN1CCN(C(=O)c2cccs2)CC1
  -0.1	-1.6	-8.8	-12.7	8.3	-7.0
CCCC(=O)c1c[nH]c(C(=O)NCc2cccnc2)c1
  -0.7	-12.1	2.8	-11.5	1.8	-3.4
Cc1ccnc2nc(C(=O)Nc3nccs3)nn12
  -0.5	-3.2	0.0	10.6	23.2	-2.8
CC1(C(=O)Nc2cccc3cccnc23)CCN1C(=O)CC1CC1 (stereo not drawn)
  -0.7	.	1.3	.	-2.5	-8.6
O=C(NCC(c1ccc(F)cc1)N1CCOCC1)c1ccc(Br)o1 (stereo not drawn)
  0.0	10.7	2.6	-1.2	-1.9	-19.3
CCCn1nc2cc(C(=O)NCC34CC5CC(CC(C5)C3)C4)ccc2c1OCC
  0.0	-9.1	3.3	4.8	2.4	-11.1
CCOC(=O)c1cccc(NC(=O)c2cnc3ccccc3n2)c1
  0.5	-17.5	-6.7	-13.5	-8.7	-9.7

(further entries)
Screens in order – TRPML1 ag	TRPV1 potentiator	CtBP-E1A inh	TRPML1 inh	Six1-Eya2 inh	D2 potentiator
COc1ccc(CNC(=O)CN(C(=O)c2csnn2)c2ccccc2F)cc1
  0.4	-8.9	-0.9	6.2	4.8	-4.4
COc1ccc(C(=O)COC(=O)CCN2C(=O)C3CC=CCC3C2=O)c(OC)c1 (stereo not drawn)
  1.6	1.9	4.9	0.5	0.0	-11.4
O=C(CSc1nnc(NC(=O)C2CC(=O)N(c3ccccc3)C2)s1)NCC1CCCO1 (stereo not drawn)
  -0.2	-2.5	1.4	7.2	-11.0	-13.2
O=C(CSc1nnc(NC(=O)C2CCC2)s1)NC1CC1
  -0.9	0.6	47.9	-2.1	31.4	-0.1
C/C=C/CSc1nc2c(c(=O)[nH]c(=O)n2C)n1C(C)C
  0.0	-5.8	3.0	11.1	0.4	0.6
Cc1ccccc1C(=O)N1CCC(C(=O)Nc2ccc(S(=O)(=O)N3CCCC3)cc2)CC1
  -0.9	?	11.1	-12.5	1.5	1.9
N#Cc1cc(C(=O)c2cc(Cl)ccc2O)cn(CC2CCCO2)c1=O (stereo not drawn)
  -0.1	?	-10.6	-3.7	-1.4	-12.7
Cc1ccccc1OCC(=O)NNC(=O)c1ccc(-c2ccccc2)cc1
  0.1	5.5	-2.5	-14.5	-6.0	-4.5
CCCCn1cnc2cc(C)c(C)cc21
  2.8	25.2	-1.1	-7.8	-1.5	-9.5
O=C(NCc1ccccc1)c1onc(CSc2nc3ccccc3[nH]2)c1C(=O)NCc1ccccc1
  2.1	5.6	-19.0	-8.8	-7.4	-9.4

(more compounds)
Screens in order – TRPML1 ag	TRPV1 potentiator	CtBP-E1A inh	TRPML1 inh	Six1-Eya2 inh	D2 potentiator
Cc1ccc2cc(CCNC(=O)C3CCCCC3)c(=O)[nH]c2c1C
  -0.4	22.2	3.0	4.0	0.1	-7.7
CC(C)Oc1ccc(C(=O)Nc2nnc(C3=COCCO3)o2)cc1
  1.1	2.8	-15.4	2.7	-22.4	-17.1
Cc1cccc(NC(=O)CSCC(=O)Nc2ccc(S(=O)(=O)N3CCCCC3)cc2)c1
  -0.7	-17.8	2.5	-10.0	-3.6	2.1
CCOc1ccccc1NC(=O)CSc1n[nH]c(=O)n1-c1ccccc1
  3.7	.	0.9	-0.2	-2.7	-0.3
CCOc1ccccc1Nc1nc2ccccc2n1C(C)C
  0.7	9.1	-9.6	23.3	-1.8	-9.8
Brc1ccc(-c2noc(COc3ccc4c(c3)CCC4)n2)o1
  2.4	19.5	-8.3	-11.8	34.2	-1.2
COc1cccc(C(C)(O)c2nc(-c3cccc(C(C)C)c3)cs2)c1 (stereo not drawn)
  0.7	.	11.1	-1.6	-3.5	-8.2
COc1ccccc1C(=O)OCC(=O)N1CCC(Cc2ccccc2)CC1
  1.8	3.9	-1.5	-4.4	4.5	-3.8
Cc1cc(C)nc(SCC(=O)NN=C2CCCC2)n1
  0.5	1.1	.	0.6	-17.1	-5.3
C=CCOC(=O)C(C#N)c1nc2ccccc2nc1N1CCN(c2ccccc2OCC)CC1 (stereo not drawn)
  0.5	-1.5	5.7	41.2	-11.7	-29.3

Later entries.
Screens in order – TRPML1 ag	TRPV1 potentiator	CtBP-E1A inh	TRPML1 inh	Six1-Eya2 inh	D2 potentiator
O=c1c2ccccc2sn1-c1ccc(F)cc1
  1.6	-12.4	-1.7	4.9	-1.8	-85.3
Cc1sc(NC(=O)CS(=O)(=O)c2ccccc2)c(C(N)=O)c1C
  0.1	1.3	-7.4	11.3	-2.6	-10.0
C=CCn1c(SCC(=O)NCCCC)nc2scc(-c3ccco3)c2c1=O
  -0.5	-15.6	-1.9	-20.5	-16.5	-2.1
CC[C@]12c3[nH]c4ccccc4c3CCN1C(=O)C(CC(=O)NCc1ccc(OC)c(OC)c1)C[C@@H]2C(=O)N1CCN(C(=O)C2CC2)CC1 (stereo partly drawn)
  -0.9	.	-0.4	7.9	-0.4	.
CCn1cc(C2=NOC(C(=O)Nc3ccccc3C(=O)OC)C2)c(C)n1 (stereo not drawn)
  -0.5	9.1	-12.7	-10.8	0.3	9.9
Cc1ccccc1NC(=O)CN1C(=O)S/C(=C/c2cccnc2)C1=O
  -0.7	4.1	1.2	1.4	2.9	-6.0
CCOC(=O)C1CCN(C(=O)c2cc(S(=O)(=O)N3CCOCC3)ccc2C)CC1
  -0.3	14.4	7.0	88.4	1.6	-1.1
Cc1c(C(=O)c2cccc(F)c2)c2ccccn2c1CCC#N
  0.1	10.2	-17.7	1.6	2.1	0.4
O=C(/C=C/c1cccc(Cl)c1)NCc1cccs1
  1.2	-26.5	13.7	28.4	5.6	-6.9
CN1C(=O)C2(OCC(C)([N+](=O)[O-])CO2)c2ccccc21 (stereo not drawn)
  -0.5	-0.5	-2.4	3.3	6.9	-0.4

Additional entries:
Screens in order – TRPML1 ag	TRPV1 potentiator	CtBP-E1A inh	TRPML1 inh	Six1-Eya2 inh	D2 potentiator
CSCCC(c1nnnn1C(C)(C)C)N1CCN(C/C=C/c2ccccc2)CC1 (stereo not drawn)
  -0.8	.	-12.8	.	-26.1	-13.7
CCOc1cc(NC(=S)NCC2CCCO2)c(OCC)cc1NC(=O)c1cccc(F)c1 (stereo not drawn)
  1.8	-7.3	-12.8	26.4	-13.8	-8.6
CSc1nc(=S)n(-c2ccccc2)c(C)c1C(C)=O
  1.0	7.1	.	-12.5	6.4	-8.6
CCOC(=O)c1c(C)n(C)c2ccc(OCCN(C)C)cc12
  1.2	-8.2	-21.0	20.0	1.9	-5.3
Cn1cc(C(=O)NCN2CCCCC2)c2ccccc21
  0.3	21.8	5.5	3.3	-18.8	4.0
CCOC(=O)N1CCC(NC(=O)C2CCCN(Cc3nc(-c4cccc(Cl)c4)oc3C)C2)CC1 (stereo not drawn)
  0.7	2.1	-0.6	3.8	-2.7	-7.1
CN(CC(=O)Nc1cccc(F)c1)C(=O)c1cccnc1Sc1ccccc1
  -0.6	?	7.3	-1.6	-0.2	-8.8
NNC(=O)c1cccc(COCC(F)(F)C(F)F)c1
  0.5	-14.1	-7.3	6.7	1.7	-2.3
CCCC[C@@H]1CNC(=O)C(=O)N1CC(C)(C)C
  -0.4	1.1	.	1.0	5.4	-2.9
CCOC(=O)c1c(C)[nH]c(C)c1C(=O)COC(=O)/C=C/c1cccc(Cl)c1
  -1.6	7.8	-0.7	16.0	1.8	4.8

The listing continues:
Screens in order – TRPML1 ag	TRPV1 potentiator	CtBP-E1A inh	TRPML1 inh	Six1-Eya2 inh	D2 potentiator
O=C(O)/C(=C\c1c(C(=O)O)[nH]c2cc(Cl)cc(Cl)c12)c1ccccc1
  -0.7	-3.7	24.3	2.4	9.4	-10.0
CC(C)(C)OC(=O)N1CCN(C(=O)c2ncn(Cc3ccccc3)c2C(=O)N2CCN(C(=O)OC(C)(C)C)CC2)CC1
  -0.7	7.6	4.1	12.1	-0.4	-3.1
Cc1cccc(C)c1-n1nnnc1C(c1ccnc2ccccc12)N1CCN(C(=O)OC(C)(C)C)CC1 (stereo not drawn)
  15.7	.	-23.4	.	17.3	.
O=C(O)CN1C(=O)c2ccc(Oc3ccc4c(c3)C(=O)N(CC(=O)O)C4=O)cc2C1=O
  0.5	-9.0	4.2	23.6	-1.3	-6.6
O=c1oc(=S)oc2c1[C@H](c1ccc(Cl)cc1)O[C@H](C1CC1)C2
  -0.9	.	5.0	.	0.7	.
COc1cc(CN2CCNC(=O)C2CC(=O)O)cc(OC)c1 (stereo not drawn)
  0.5	-2.8	-3.3	-5.8	-3.8	1.8
COc1cccc(NC(=O)CSc2nnnn2C2CCCC2)c1
  -0.5	-15.9	2.5	50.6	2.9	0.2
COc1cc(OC)cc(C(=O)Nc2cc(C)nn2-c2ccccc2)c1
  1.1	-10.8	-0.2	-10.7	-6.8	1.4
CCCN1CCN(c2ccc([N+](=O)[O-])cc2C#N)CC1
  0.0	-7.6	-5.6	-3.1	-7.2	-25.4
